Screening data from PubChem.
CtBP-E1A blk = blocks the CtBP interaction with E1A; AlphaScreen GST-E1A/His-CtBP binding, 1536-well; active compounds read low; control for the full effect not named in the record; activity change, % (no concentration beside the values); actives 0.49% (n = 340,000); AID 651724; in the data active means activity change below about -65%; inconclusive means about -30% to -65%; inactive means above about -30%; also: % is scaled to controls: 0 for no effect and ±100 for the full control effect
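In 5 uL wells, 23 nL compound meets equimolar GST-E1A and His-CtBP (5X stock 125 nM each) for 2 h, 37 °C. Beads (5X, 50 ug/mL) then 1 h, 37 °C, dark.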
D2 ag = activates the human D2 dopamine receptor. P14416. DiscoveRx PathHunter D2 beta-arrestin, luminescence, 90 min; 100% = 57 uM dopamine signal. activation, % (test concentration not listed). actives 0.084% (n = 360,000). AID 624465; in the data active = activation above about 40%; inconclusive = about 15% to 40%; inactive = below about 15%; also: compound concentration not given in the record; the text of the record calls up to 30% inactive
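DiscoveRx PathHunter D2 beta-arrestin cells (2,100/well) attached overnight, then compound-stimulated 90 min at 37 C in HBSS/10 mM HEPES/0.1% Tween-20 buffer; beta-galactosidase complementation read by luminescence after 1 h at ambient temperature. Dopamine 57 uM final (EC100) as control.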
Six1-Eya2 inh = Six1/Eya2 interaction inhibition | AlphaScreen GST-Six1/His-Eya2 binding, biochemical; active compounds read low; control for the full effect not named in the record | activity change, % (concentration not given with the values) | actives 0.56% (n = 360,000) | AID 651725; in the data active = activity change below about -65%; inconclusive = about -30% to -65%; inactive = above about -30%; also: % is scaled to controls: 0 for no effect and ±100 for the full control effect
Target sequence (O00167 whole entry, looked up): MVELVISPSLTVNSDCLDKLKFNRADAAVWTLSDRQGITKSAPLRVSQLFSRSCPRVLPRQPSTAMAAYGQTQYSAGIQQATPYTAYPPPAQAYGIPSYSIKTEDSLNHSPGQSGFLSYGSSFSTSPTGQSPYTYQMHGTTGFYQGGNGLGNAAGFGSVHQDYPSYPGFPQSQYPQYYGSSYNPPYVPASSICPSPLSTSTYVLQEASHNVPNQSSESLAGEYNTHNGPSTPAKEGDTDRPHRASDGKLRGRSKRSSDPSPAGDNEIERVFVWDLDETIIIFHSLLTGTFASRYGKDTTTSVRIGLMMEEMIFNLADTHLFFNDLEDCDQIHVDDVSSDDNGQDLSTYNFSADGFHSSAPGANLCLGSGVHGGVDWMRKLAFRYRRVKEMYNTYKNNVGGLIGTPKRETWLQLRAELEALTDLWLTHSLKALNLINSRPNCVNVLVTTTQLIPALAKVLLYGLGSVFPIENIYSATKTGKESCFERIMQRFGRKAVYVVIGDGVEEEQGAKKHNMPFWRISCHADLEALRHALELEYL
Target sequence (Q15475 whole entry, looked up): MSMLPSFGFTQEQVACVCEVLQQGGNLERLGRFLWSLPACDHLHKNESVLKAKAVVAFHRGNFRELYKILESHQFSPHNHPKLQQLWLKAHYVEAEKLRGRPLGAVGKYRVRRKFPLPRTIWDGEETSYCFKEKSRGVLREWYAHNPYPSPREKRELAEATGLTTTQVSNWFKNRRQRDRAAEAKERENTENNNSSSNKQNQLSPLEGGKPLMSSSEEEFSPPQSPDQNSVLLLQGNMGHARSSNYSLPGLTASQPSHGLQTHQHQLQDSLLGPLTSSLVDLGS
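Six1/Eya2 binding was read as AlphaScreen signal after compounds were pinned into GST-Six1 plus His-tagged Eya2 (5X stock 250/500 nM) in pH 8.0 Tris/NaCl/TCEP buffer, beads added, then incubated 1 h, 37 C, dark.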
D2 potentiator = potentiates the human D2 dopamine receptor allosterically; DiscoveRx D2 beta-arrestin cells, luminescence, 90 min; 100% = 57 uM dopamine signal; potentiation, % (test concentration not listed); actives 0.23% (n = 360,000); AID 624464; active = potentiation of 50% or more; inconclusive = 30% to 50%; inactive = 30% or less;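 also: compound concentration not given in the record; tested on top of an EC20 dose of dopamine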
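PathHunter beta-arrestin assay in DiscoveRx D2 cells. Compounds were added with an EC20 of dopamine (50 nM final) for 90 min at 37 deg C. Luminescence was read 1 h after detection reagent, with 57 uM dopamine as the EC100 control.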
gsp antagonist = antagonizes gsp, the McCune-Albright syndrome mutation | gsp-mutant cells, cAMP HTRF, 30 min; control for the full effect not named in the record | actives 0.4% (n = 340,000) | AID 624288 | Potency, µM (doses to about 76.9 µM), without a hit: at the top dose activity change, negative = inhibition, actives largely listed as inhibitors; active = falling curve of any shape with a large fitted effect; inconclusive = falling curve, mostly with a smaller effect; inactive = flat or rising curve; cell line not stated here;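 also: intracellular cAMP measured with PDE inhibitor Ro 20-1724 present during compound exposure; potency is read from the fitted curve at half-maximal effect; % is scaled to controls: 0 for no effect and ±100 for the full control effect; nearly all actives have a fitted effect of over 65% in size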
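HTRF cAMP read-out (cAMP-d2 plus anti-cAMP antibody-K in lysis buffer, 30 min RT). Before lysis, cells are exposed to compounds with […] for 30 min at 37C in DPBS containing Ca/Mg, BSA and Tween 20.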
gsp agonist = activates gsp, the McCune-Albright syndrome mutation; gsp mutant cells, cAMP HTRF, 30 min; control for the full effect not named in the record; Potency, µM (series often up to 76.9 µM), inactives show at the top dose activation (cAMP increase), actives largely listed as activators; actives 0.13% (n = 340,000); active = well fitted activation curve with a large enough effect; inconclusive = small, poorly fitted or top-dose-only effect, or another doubt; inactive = no such curve, though single readings can be large or run the other way; cell line not stated here;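 also: phosphodiesterase inhibitor Ro 20-1724 added with compounds to block cAMP breakdown; potency is read from the fitted curve at half-maximal effect; nearly all actives have a fitted effect of over 60% in size; about a fifth of the inactives were tested at one dose only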
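Cells stably selected in G418 were plated at 2000/well, grown 16-24 hr, then given compounds in DMSO with the PDE inhibitor […] (300 uM solution added) for 30 min at 37C; cAMP was read by HTRF.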
Active calls of the source: *; ? = inconclusive; nt = no result given; [ ] = remark or other dose.

CtBP-E1A blk	D2 ag	Six1-Eya2 inh	D2 potentiator	gsp antagonist	gsp agonist	molecule
1	-1.7	6	-10	-6%	?	CCCNC(=O)COc1coc(CN2CCN(c3ccc(F)cc3)CC2)cc1=O
-10	-0.9	-11	-12	20%	-13%	COc1cc(/C=N/NC(=S)NC2CC3CCC2C3)ccc1O (centres undefined)
2	1.6	1	-8	10%	2%[15.4 µM]	Nc1nnc(CC(=O)Nc2ccccc2)s1
0	6.5	4	3	-3%	1%	CCc1cc2c(CN(C)Cc3ccccc3F)cc(=O)oc2cc1O
3	-1.3	-3	-15	17%	2%	CCOC(=O)c1c(NC(=O)CN2C(=O)NC3(CCC(C)CC3)C2=O)sc(C)c1-c1ccc(C)cc1 (centres undefined)
19	-3.1	0	-8	32%[activator]	-37%[inhibitor]	CC1=CCC2C(=O)N(c3ccc(C)cc3)C(=O)C2C1 (centres undefined)
7	-4.2	6	7	3%	30%	CCCCN(C(=O)c1cc(CC)c(C)s1)c1c(N)n(CC(C)C)c(=O)[nH]c1=O
-12	1.3	-15	-5	-15%	10%	CCN(CC)c1ccc(NC(=O)c2cnn(CC)c2)cc1
0	0.8	1	-10	-13%	20%	COc1ccc(C(=O)On2c(-c3ccc(Br)cc3)nc3ccccc3c2=O)cc1
nt	-2.5	0	-21	1%	7%	O=C(CN1C(=O)NC2(CCCCCC2)C1=O)Nc1ccc(Cl)c([N+](=O)[O-])c1

CtBP-E1A blk	D2 ag	Six1-Eya2 inh	D2 potentiator	gsp antagonist	gsp agonist	molecule
-3	-0.5	-5	?	1%	-47%	O=C(NNC(=O)C1COc2ccccc2O1)c1ccccc1O (centres undefined)
10	-1.5	-1	-5	-9%	1%	CCCn1nnnc1NCc1ccccc1OCc1cccs1
4	0.5	-21	-4	9%	nt	O=C(NCCOc1ccccc1)C1Nc2ccc(OC(F)(F)F)cc2C2C=CCC12 (centres undefined)
-2	3.7	-1	-6	0%	15%	Cc1cc(C)c2nc(N3C(=O)C(O)=C(C(=O)c4ccco4)C3c3ccc(O)cc3)sc2c1 (centres undefined)
-5	-11	-6	-8	?	-15%	Cc1ccc(N=C2NC(=O)/C(=C/c3cn(C)c4ccccc34)S2)cc1C
?	-6.2	-8	-12	?	-9%	O=C1/C(=C\c2ccc(O)cc2)SC(=S)N1/N=C/c1ccc(O)cc1
7	0.0	5	-8	-3%	-2%	COCc1cc(C)nc(N2CCOCC2)c1C#N
1	-4.3	-1	-9	2%	-9%	Cc1cc(C(=O)N/N=C/c2cccc([N+](=O)[O-])c2)c(C)o1
3	1.1	3	15	4%	5%	COc1cccc(CC(=O)Nc2ccc(N3CCOCC3)c(S(=O)(=O)Nc3ccccc3OC)c2)c1
?	13	-27	?	?	-42%[inhibitor]	CCc1ccc(CNc2ccc(O)cc2)cc1

CtBP-E1A blk	D2 ag	Six1-Eya2 inh	D2 potentiator	gsp antagonist	gsp agonist	molecule
1	1.9	12	-5	3%	7%[15.4 µM]	Cc1nn(C)c(C)c1CN(C)C(=O)C1CCC(=O)N(C2CCCCCC2)C1 (centres undefined)
3	5.3	3	3	17%	-6%[15.4 µM]	CCCCn1c(N)c(N(CC(C)C)C(=O)COC(=O)c2ccccc2NCCO)c(=O)[nH]c1=O
nt	0.2	-7	6	-5%	0%	O=C(O)/C(=C\c1cccc(O)c1)c1ccc(S(=O)(=O)N2CCCC2)s1
nt	4.3	4	-9	6%	10%	Cc1nc(Cl)c2c(n1)N(CC(N)=O)C(=O)CO2
11	-2.7	-7	-5	5%	12%	Oc1[nH]c2ccccc2c1N=Nc1ccccc1Cl
0	-4.4	-10	-28	-11%	49%	CCOC(=O)C(C)(C)N(Cc1ccccc1C)S(=O)(=O)c1ccc(Cl)c([N+](=O)[O-])c1
-5	0.7	1	-18	12%	nt	CNC[C@@H](CC1CCCCC1)NC[C@H](CC(C)C)NCCc1cccc(C(F)(F)F)c1
-6	1.8	-3	14	18%	-8%	Cc1cc(C)c(S(=O)(=O)N/N=C/c2ccc([N+](=O)[O-])o2)c(C)c1
8	-2.3	-4	-6	-15%	18%	Cn1c(SCc2nc3ccccc3s2)nnc1-c1ccc2c(c1)OCO2
12	2.5	1	-17	5%	10%[15.4 µM]	CC[n+]1c(/C=C/N(C)c2ccccc2)oc2ccccc21

Structures from the list above that contain an NH in an aromatic ring (three):
CtBP-E1A blk	D2 ag	Six1-Eya2 inh	D2 potentiator	gsp antagonist	gsp agonist	molecule
7	-4.2	6	7	3%	30%	CCCCN(C(=O)c1cc(CC)c(C)s1)c1c(N)n(CC(C)C)c(=O)[nH]c1=O
3	5.3	3	3	17%	-6%[15.4 µM]	CCCCn1c(N)c(N(CC(C)C)C(=O)COC(=O)c2ccccc2NCCO)c(=O)[nH]c1=O
11	-2.7	-7	-5	5%	12%	Oc1[nH]c2ccccc2c1N=Nc1ccccc1Cl

Other entries.
CtBP-E1A blk	D2 ag	Six1-Eya2 inh	D2 potentiator	gsp antagonist	gsp agonist	molecule
-2	?	-27	15	-13%	-3%	O=C(CSc1ncnc2scc(-c3ccccc3)c12)N1CCN(Cc2ccc3c(c2)OCO3)CC1
-1	-2.5	-3	0	-26%	-15%	Cn1c(CCNC(=O)c2ccco2)nc2cc(NS(=O)(=O)c3ccc(Cl)cc3)ccc21
3	1.7	2	-6	-2%	?	O=C(COC(=O)c1c(Cl)cccc1Cl)NC1CCCCC1
nt	-1.5	1	-11	5%	-4%	Cc1ccc(NC(=O)CC2OC(=O)c3ccccc32)cc1S(=O)(=O)N1CCOCC1 (centres undefined)
2	-8.7	2	-13	-13%	?	CCCCc1ccc(N2C(=NC(=O)C3CCCO3)SC3CS(=O)(=O)CC32)cc1 (centres undefined)
-10	-1.7	-13	-3	7%	-4%[15.4 µM]	Cc1[nH]c(=O)[nH]c(=O)c1/C=N/NC(=O)CCCCCNC(=O)OC(C)(C)C
26	0.7	19	28	4%	?	Cc1ccc(/C(N)=N/OC(=O)/C=C/c2ccccc2)cc1
-26	-4.5	-10	-35	-4%	nt	COc1cccc2c1[C@@H]1CN(CCCCn3c(=O)[nH]c4c(sc5ncc(-c6ccccc6)nc54)c3=O)C[C@@H]1CO2
0	7.5	-1	-7	-8%	nt	O=C(O)c1ccccc1N=Nc1ccc(O)cc1
4	0.6	6	-6	1%	nt	CCOC(=O)[C@H]1[C@H]2COc3ccc(OC)cc3[C@@H]2N2C(=O)[C@H](C)NC(=O)[C@@]12C

Structures from the list above that contain an aryl thioether with sulfur outside any ring:
CtBP-E1A blk	D2 ag	Six1-Eya2 inh	D2 potentiator	gsp antagonist	gsp agonist	molecule
8	-2.3	-4	-6	-15%	18%	Cn1c(SCc2nc3ccccc3s2)nnc1-c1ccc2c(c1)OCO2
-2	?	-27	15	-13%	-3%	O=C(CSc1ncnc2scc(-c3ccccc3)c12)N1CCN(Cc2ccc3c(c2)OCO3)CC1

Next part
CtBP-E1A blk	D2 ag	Six1-Eya2 inh	D2 potentiator	gsp antagonist	gsp agonist	molecule
nt	5.7	9	-7	-6%	-45%[inhibitor]	O=C(C1=C[C@@H]2[C@H]3C(=O)N(c4ccc(Cl)cc4)C(=O)[C@H]3[C@@H](C(=O)c3ccc(Cl)cc3)N2C=C1)c1ccccc1
-1	-19	-1	-7	-4%	-46%[inhibitor]	COc1ccc(-c2noc(-c3ccoc3C)n2)cc1OC
5	0.3	0	-5	-10%	-17%	COc1cc(C(=O)NCCC(C)C)ccc1OCc1ccc(Cl)cc1Cl
-2	-3.2	-1	-13	-4%	-39%	CS(=O)(=O)N(Cc1ccccc1)c1ccc(C(=O)NCCSc2ccccn2)cc1
-18	-1.1	-4	1	0%	?	COc1ccc(OC)c(C2=NOC(C(=O)NCC3CCCO3)C2)c1 (centres undefined)
3	1.1	3	1	11%	-3%[15.4 µM]	O=C(Nc1cc(Cl)ccc1Cl)c1ccco1
0	2.2	-1	-5	6%	16%	Cc1nc2ncnn2c(C)c1CCC(=O)N1CCN(C(=O)c2ccco2)CC1
-24	-3.1	-5	-1	nt	nt	Cn1nc(C(C)(C)C)cc1C(=O)N1CCCCC1c1cc(C(=O)Nc2cccc3c2CCCC3)no1 (centres undefined)
13	-0.9	-3	3	-11%	-51%[inhibitor]	COCCN(Cc1cc2cc3c(cc2nc1Cl)OCO3)C(=O)Nc1ccc(F)cc1
3	-1.0	3	-2	12%	10%	COc1ccc(Cn2cccc(NC(=O)Nc3ccc(C#N)cc3)c2=O)cc1

CtBP-E1A blk	D2 ag	Six1-Eya2 inh	D2 potentiator	gsp antagonist	gsp agonist	molecule
11	-2.7	0	-3	-7%	-66%[inhibitor]	CCn1c(CSc2ncccn2)nnc1SCC(=O)N1c2ccccc2CC1C (centres undefined)
-24	-3.3	0	-13	9%	15%[15.4 µM]	CN1CCN(c2ccc(NC(=O)c3sc4ccccc4c3Cl)cc2)CC1
2	?	5	16	-14%	25%	COc1cccc(-c2onc3ccc(C(C)=O)cc23)c1
-15	0.4	-2	-6	-13%	4%[15.4 µM]	CN1C(=O)c2cccc3c(S(=O)(=O)NCCc4ccccc4)ccc1c23
nt	3.3	-2	-3	6%	-53%[inhibitor]	Nc1ccc(NC(=S)Nc2ccccc2)cc1
-20	4.2	-1	-8	0%	?	COc1ccc(NC(=O)CCCc2ccccc2)cc1OC
7	-2.6	-9	-7	4%	-16%	Cc1nn(-c2ccccc2)nc1C(=O)NNC(=O)c1ccc(C(F)(F)F)cc1
?	-0.7	?	-9	-5%	0%	O=C(N/N=C\c1ccc(-c2ccccc2[N+](=O)[O-])o1)C1COc2ccccc2O1 (centres undefined)
nt	-2.5	15	1	9%	23%	CC(C)[C@H](NC(=O)OC(C)(C)C)C(=O)N/N=C/c1ccc2nccnc2c1
-5	-4.0	-3	-6	-9%	-63%	CCOC(=O)/C=c1\s/c(=C\c2c(OCC)ccc3ccccc23)c(=O)n1CC(=O)NCC1CCCO1 (centres undefined)

CtBP-E1A blk	D2 ag	Six1-Eya2 inh	D2 potentiator	gsp antagonist	gsp agonist	molecule
-10	-2.1	0	-16	-9%	?	COc1ccc(S(=O)(=O)NCC2CCCN(Cc3ccc(OC)cc3F)C2)cc1 (centres undefined)
0	-4.4	4	-11	-6%	6%	CCOC(=O)C1(CCc2ccccc2)CCN(Cc2ccn[nH]2)CC1
-8	10	-13	-17	3%	11%	Cc1cc(C)cc(OCC(O)CN2CCN(C(=O)c3ccco3)CC2)c1 (centres undefined)
1	-0.4	14	-4	-11%	?	CCNC(=O)/C(C#N)=C/c1c(N2CC(C)OC(C)C2)nc2ccccn2c1=O (centres undefined)
-2	-1.3	-22	-40	6%	nt	C#Cc1ccc([C@@H]2C=C(C(=O)O)O[C@H](OCC)[C@H]2CCCO)cc1
